# Screening results (PubChem BioAssay)
# MLL AF4-AF9 inh = inhibitors of human MLL-AF4/AF9 interaction; inhibition, % at 10 µM; AlphaScreen, biotin-AF4 peptide binding to FLAG-AF9; P42568; hit rate 0.47% among 350,000;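 active = every replicate reaching a set inhibition limit, whatever the replicate mean, cut at about 25% in these data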;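 note: 0% = plate neutral control median and 100% = total signal loss; the record names both 10 and 1 µM as test concentration; the first replicate is given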
# Target sequence (P42568 whole entry, looked up): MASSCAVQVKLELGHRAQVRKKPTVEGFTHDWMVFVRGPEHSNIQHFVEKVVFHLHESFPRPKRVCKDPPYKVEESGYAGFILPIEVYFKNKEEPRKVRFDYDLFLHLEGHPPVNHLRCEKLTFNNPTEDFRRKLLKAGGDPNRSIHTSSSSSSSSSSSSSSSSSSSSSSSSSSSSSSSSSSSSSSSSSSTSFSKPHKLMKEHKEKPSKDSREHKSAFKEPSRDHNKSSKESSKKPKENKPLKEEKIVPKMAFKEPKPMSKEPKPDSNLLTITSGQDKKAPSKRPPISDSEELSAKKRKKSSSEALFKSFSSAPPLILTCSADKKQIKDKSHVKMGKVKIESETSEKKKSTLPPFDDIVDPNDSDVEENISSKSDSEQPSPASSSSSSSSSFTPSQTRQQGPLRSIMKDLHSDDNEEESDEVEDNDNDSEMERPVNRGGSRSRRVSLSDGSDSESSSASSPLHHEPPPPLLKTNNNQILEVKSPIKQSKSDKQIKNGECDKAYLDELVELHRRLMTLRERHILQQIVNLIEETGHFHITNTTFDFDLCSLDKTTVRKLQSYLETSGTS
# Numbers without * were called inactive. An excerpt (hit frequency here may not be typical).
structure,MLL AF4-AF9 inh
COc1ccc(CNC(=O)C[C@H]2C[C@H]3c4cc(NS(=O)(=O)c5ccc(F)cc5)ccc4O[C@H]3[C@@H](CO)O2)cc1,-4.9
CCCC#Cc1ccc([C@H]2[C@@H](CO)N3CCCCN(S(=O)(=O)c4ccccc4C)C[C@H]23)cc1,6.6
O=C(c1ccncc1)N1CC2(C1)[C@H](c1ccccc1)[C@@H](CO)N2C(=O)CC1CC1,-2.1
C[C@H](CO)N1C[C@H](C)[C@H](CN(C)C(=O)Nc2ccccc2)Oc2ccc(NC(=O)C3CCCCC3)cc2CC1=O,-0.7
C[C@H]1CN([C@@H](C)CO)C(=O)c2cc(NC(=O)NC3CCCCC3)ccc2O[C@H]1CN(C)Cc1ccncc1,-1.0
CC(C)NC(=O)N[C@@H]1CC[C@@H](CCNC(=O)C2CCC2)O[C@@H]1CO,0.6
COC(=O)[C@]12CCCCC=C1N(Cc1cccc3ccccc13)C(=O)[C@H](CC(=O)NCCC(C)C)C2,3.5
C[C@H]1CN([C@@H](C)CO)C(=O)c2cc(NC(=O)Cn3cnnn3)ccc2O[C@H]1CN(C)Cc1ccc(C(=O)O)cc1,-4.7
CCC(=O)Nc1ccc2c(c1)OC[C@@H](C)N(C(=O)c1ccccc1F)C[C@H](C)[C@@H](OC)CN(C)C2=O,0.4
C[C@H](CO)N1C[C@H](C)[C@@H](CN(C)C(=O)Nc2ccccc2)Oc2c(NS(=O)(=O)c3ccc(Cl)cc3)cccc2C1=O,-10.7
O=C(c1ccccc1)N1CC(=O)N2[C@H](CO)[C@@H](c3ccc(C#CC4CC4)cc3)[C@H]2C1,2.6
CCS(=O)(=O)N1CC2(C1)[C@H](c1ccccc1)[C@H](CO)N2CC1CCCC1,3.1
C[C@H](CO)N1C[C@H](C)[C@H](CN(C)C(=O)Nc2ccc3c(c2)OCO3)Oc2c(NC(=O)NC3CCCCC3)cccc2C1=O,5.5
CC1(C(=O)NCC2CC2)CCN1C(=O)C1(c2ccc(Cl)cc2)CC1 (stereo not given),-1.0
CN1C(=O)c2cc(NC(=O)Cc3cccs3)ccc2OC[C@@H]2O[C@H](CC(=O)NCC3CC3)CC[C@@H]21,-10.0
CC(C)NC(=O)Nc1ccc2c(c1)C(=O)N([C@H](C)CO)C[C@H](C)[C@@H](CN(C)C(=O)NC(C)C)OCCCC[C@@H](C)O2,-2.2
CO[C@H]1CN(C)C(=O)c2cc(NC(=O)Nc3ccccc3F)ccc2OC[C@@H](C)NC[C@@H]1C,-14.1
O=c1ccn(C2CCCCC2)c(=O)[nH]1,-5.0
CC1C=NC(S(=O)(=O)N2CC[C@@H]3[C@@H](CO)N(C)c4ccc(-c5cccc(F)c5)cc4[C@@H]32)=N1 (stereo not given in full),7.2
CCCNC(=O)N1C[C@H](C)[C@@H](OC)CN(C)C(=O)c2cc(NC(=O)CC)ccc2OC[C@@H]1C,-1.4
O=C(C[C@H]1C=C[C@@H](NC(=O)c2ccncc2)[C@@H](CO)O1)NCc1ccncn1,-5.4
CCC(=O)N1CC[C@H]2[C@H](CO)Nc3ccc(C#Cc4ccccc4F)cc3[C@H]21,3.5
CCNC(=O)c1cc2c(c(-c3cccc(-c4cccc(F)c4)c3)n1)[C@@H](CCO)N([S@](=O)C(C)(C)C)C2,0.2
C[C@H]1CN([C@@H](C)CO)C(=O)c2cccc(NC(=O)C3CC3)c2O[C@@H]1CN(C)CC1CCCCC1,2.3
COc1ccccc1C#Cc1ccc([C@@H]2[C@H](CO)N3CCCCN(C(=O)C4CCC4)C[C@@H]23)cc1,4.0

# Look-ups from the entries so far:
# O=C(c1ccncc1)N1CC2(C1)[C@H](c1ccccc1)[C@@H](CO)N2C(=O)CC1CC1 – MLL AF4-AF9 inh = -2.1
# CO[C@H]1CN(C)C(=O)c2cc(NC(=O)Nc3ccccc3F)ccc2OC[C@@H](C)NC[C@@H]1C – MLL AF4-AF9 inh = -14.1
# C[C@H](CO)N1C[C@H](C)[C@@H](CN(C)C(=O)Nc2ccccc2)Oc2c(NS(=O)(=O)c3ccc(Cl)cc3)cccc2C1=O – MLL AF4-AF9 inh = -10.7
# CCCNC(=O)N1C[C@H](C)[C@@H](OC)CN(C)C(=O)c2cc(NC(=O)CC)ccc2OC[C@@H]1C – MLL AF4-AF9 inh = -1.4

# (list continues)
structure,MLL AF4-AF9 inh
Cc1cc(C(=O)Nc2cccc3c2O[C@@H](CN(C)S(=O)(=O)c2c(C)noc2C)[C@@H](C)CN([C@H](C)CO)C3=O)n(C)n1,-4.0
CS(=O)(=O)N1[C@H](CO)[C@@H](c2ccccc2)[C@@H]1C#N,0.2
COc1ccccc1NC(=O)c1ccc(S(=O)(=O)N(C)c2ccccc2)cc1,-5.3
Cc1noc(C)c1S(=O)(=O)Nc1ccc2c(c1)C(=O)N([C@@H](C)CO)C[C@@H](C)[C@@H](CN(C)S(=O)(=O)c1ccc(Cl)cc1)O2,-14.5
C[C@@H]1CN([C@@H](C)CO)C(=O)c2cccc(NS(=O)(=O)c3ccccc3)c2O[C@H]1CN(C)Cc1ccc(Cl)c(Cl)c1,1.6
CC(=O)N(C)C[C@@H]1Oc2ncc(-c3cccc(C#N)c3)cc2C(=O)N([C@@H](C)CO)C[C@@H]1C,-4.0
C/C=C/c1ccc([C@@H]2[C@@H](CN(CC)C(C)=O)N(S(C)(=O)=O)[C@H]2CO)cc1,-0.8
CN(C)c1ccc(-c2ccnc3c2CC(C)(C(=O)Nc2ccc(Cl)cc2)O3)cc1 (stereo not given),4.7
Cn1cnc(S(=O)(=O)N2C[C@H](O)COC[C@H]3O[C@@H](CC(=O)NC4Cc5ccccc5C4)CC[C@@H]32)c1,-0.9
O=C(NCC[C@@H]1CC[C@@H](NC(=O)C2CCOCC2)[C@@H](CO)O1)Nc1ccc(Cl)cc1,-6.2
C[C@@H]1CN([C@H](C)CO)C(=O)c2cc(C#CCC3CCCC3)cnc2O[C@H]1CN(C)Cc1ccccn1,9.9
CC(=O)N(C)C[C@H]1Oc2cc(-c3cccnc3)ccc2S(=O)(=O)N([C@H](C)CO)C[C@@H]1C,1.4
COCC#Cc1ccc2c(c1)O[C@@H](CN(C)C(=O)Nc1ccccc1F)[C@@H](C)CN([C@@H](C)CO)S2(=O)=O,-5.3
COCC(=O)Nc1ccc2c(c1)[C@H]1C[C@H](CC(=O)NCc3ccccc3)O[C@@H](CO)[C@H]1O2,-2.5
CNC[C@H]1OCc2ccccc2-c2ccccc2C(=O)N([C@@H](C)CO)C[C@@H]1C,-3.5
C[C@@H]1CN([C@@H](C)CO)C(=O)Cc2cc(NC(=O)Cc3ccccc3)ccc2O[C@H]1CN(C)C(=O)Nc1ccc(F)cc1,-1.1
C[C@H]1CN([C@@H](C)CO)C(=O)Cc2cc(NC(=O)Cc3ccccc3)ccc2O[C@@H]1CN(C)C(=O)NC1CCCCC1,2.2
CC1(C(=O)NS(=O)(=O)c2ccc(Cl)cc2)CCN1C(=O)C1CCCCC1 (stereo not given),1.7
CN1CCN(C(=O)C[C@H]2CC[C@H]3[C@H](COc4ccc(NC(=O)c5ccc(F)c(F)c5)cc4C(=O)N3C)O2)CC1,-1.1
CCCS(=O)(=O)NC(=O)C1(C)CCCN(C(=O)c2c(C)noc2C)C1 (stereo not given),1.1
O=C(/C=C/[C@H]1O[C@@H](n2ccc(=O)[nH]c2=O)[C@H](O)[C@@H]1O)NCc1ccc2c(c1)OCO2,-4.8
Cc1noc(C)c1NC(=O)Nc1cccc2c1O[C@H](CN(C)S(=O)(=O)c1ccc(Cl)cc1)[C@@H](C)CN([C@@H](C)CO)C2=O,-0.6
C[C@H](O)C#Cc1ccc2c(c1)O[C@@H](CN(C)C(=O)CN(C)C)[C@@H](C)CN([C@H](C)CO)S2(=O)=O,-2.5
CC(=O)N(C)C[C@H]1Oc2cc(-c3cccnc3)ccc2S(=O)(=O)N([C@@H](C)CO)C[C@@H]1C,1.9
CO[C@H]1CC[C@@H]2CCN(C)C(=O)[C@@H](C)N(C)C(=O)c3cc(C#N)ccc3OC[C@@H]1O2,1.0
CCS(=O)(=O)Nc1ccc2c(c1)C(=O)N(C)[C@@H]1CC[C@@H](CC(=O)NC3CCCCC3)O[C@H]1CO2,0.3
Cc1ccc(S(=O)(=O)N(C)C[C@H]2OCCCC[C@H](C)Oc3ccc(NS(=O)(=O)c4ccc(Cl)cc4)cc3C(=O)N([C@H](C)CO)C[C@H]2C)cc1,-2.2
COc1cc(C)ccc1S(=O)(=O)NC(=O)C1(C)CCN1C(=O)COc1ccc(Cl)cc1 (stereo not given),3.3
C[C@H](CO)N1C[C@H](C)[C@H](CN(C)Cc2ccc(Cl)c(Cl)c2)Oc2ccc(NS(=O)(=O)c3ccc(F)cc3)cc2C1=O,0.3
Cc1c(Cl)cccc1NC(=O)C1CC(=O)N(C2CCCC2)C1 (stereo not given),-3.3
COc1ccc2c3c(n(C)c2c1)[C@H](CO)NCC31CCN(S(=O)(=O)c2cccc(F)c2)CC1,3.3
O=C(C[C@@H]1CC[C@@H]2[C@H](COC[C@@H](O)CN2Cc2ccccc2F)O1)N[C@H]1CCN(Cc2ccccc2)C1,0.2
O=C(N[C@@H]1C[C@@H]2O[C@@H](CO)CC[C@@H]2O[C@@H]1CCc1ccc(-c2ccccc2)cc1)c1cnccn1,6.9
COc1ccc(S(=O)(=O)Nc2cccc3c2O[C@@H](CN(C)S(=O)(=O)c2ccc(OC)cc2)[C@H](C)CN([C@@H](C)CO)C3=O)cc1,3.0
CN1C(=O)c2cc(NC(=O)C3CCC3)ccc2OC[C@@H]2O[C@H](CC(=O)NCc3ccccc3F)CC[C@H]21,4.8
CCOc1ccccc1N=C1SCC(C)N1C(=O)C1CCN(c2ncnc3sc(C)c(C)c23)CC1 (stereo not given),3.0
CCOc1ccc(Cl)cc1-c1cc(C(=O)Nc2ccc(OC)nc2)[nH]n1,1.9
C[C@@H]1CN([C@@H](C)CO)S(=O)(=O)c2ccc(C#CC(C)(C)O)cc2O[C@@H]1CN(C)C,0.8
C[C@@H]1CCCCO[C@@H](CN(C)C(=O)CCCN(C)C)[C@H](C)CN([C@H](C)CO)C(=O)c2cc(NC(=O)c3ccccc3)ccc2O1,-3.3
C[C@H]1CN([C@@H](C)CO)C(=O)c2cccc(NS(=O)(=O)c3ccccc3)c2O[C@@H]1CN(C)Cc1ccc(-c2ccccc2)cc1,6.1
C[C@H](CO)N1C[C@H](C)[C@H](CN(C)Cc2ccccc2)Oc2c(NC(=O)Nc3ccc4c(c3)OCO4)cccc2C1=O,7.2
C[C@H](CO)N1C[C@H](C)[C@H](CN(C)CC2CCOCC2)Oc2ncc(C#Cc3ccccc3)cc2C1=O,5.7
CC(C)NC(=O)N(C)C[C@@H]1Oc2cc(C#CCN(C)C)ccc2S(=O)(=O)N([C@@H](C)CO)C[C@@H]1C,-1.4
CC(O)(c1cccnc1)c1nc(-c2ccc3c(c2)OCO3)cs1 (stereo not given),1.0
CCC(=O)N[C@@H]1C=C[C@@H](CC(=O)NCc2ccc(OC)cc2)O[C@H]1CO,2.1
O=C(C[C@H]1CC[C@@H]2[C@H](COC[C@H](O)CN2C(=O)Nc2ccc(Cl)c(Cl)c2)O1)NC1CCC1,1.4
CCc1nc2ccc(C(=O)Nc3cc(-c4ccccc4)ccc3OC)cn2c1N(CCN(C)C)CC1CC1,29.8*
COc1ccc2c3c([nH]c2c1)[C@@H](CO)NCC31CCN(C(=O)Nc2ccc3c(c2)OCO3)CC1,1.9
COc1ccc(-c2oc3c(c2C#CC2(O)CCCCC2)C(OC(C)=O)CCC3)cc1 (stereo not given),3.8
COc1ccc2oc3cc(NCCN(C)C)ccc3c(=O)c2c1,-6.2

# Further structures follow:
compound	MLL AF4-AF9 inh
CCCN(C)C[C@@H]1Oc2cc(-c3cccc(OC)c3)ccc2S(=O)(=O)N([C@H](C)CO)C[C@@H]1C	6.4
CC(C)NC(=O)Nc1cccc2c1O[C@H](CN(C)Cc1ccc(C(F)(F)F)cc1)[C@H](C)CN([C@@H](C)CO)C2=O	0.9
CC1(C(=O)Nc2ccc3[nH]ncc3c2)CCN1C(=O)CCc1ccccc1 (stereo not given)	0.7
C[C@@H]1CN([C@@H](C)CO)C(=O)c2cccc(NC(=O)Nc3ccc4c(c3)OCO4)c2O[C@H]1CN(C)Cc1ccc2c(c1)OCO2	7.2
CCOC(=O)[C@]12CCC=C1N(Cc1ccco1)C(=O)[C@H](CC(=O)NCCCOC)C2	-6.5
C[C@@H]1CN([C@@H](C)CO)C(=O)c2cc(NS(C)(=O)=O)ccc2O[C@@H](C)CCCCO[C@@H]1CN(C)C(=O)Cc1ccccc1	-1.8
N#Cc1ccc(OCC(=O)Nc2cc(S(=O)(=O)N3CCOCC3)ccc2N2CCCC2)cc1	2.2
C[C@H](CO)N1C[C@H](C)[C@H](CN(C)C(=O)Nc2ccc(F)cc2)Oc2ccc(NC(=O)Cc3ccccc3)cc2CC1=O	-1.0
Nc1ccc2c(c1)[nH]c(=O)c1ccccc12	-2.2
COc1ccc(NC(=O)Nc2ccc3c(c2)C(=O)N([C@@H](C)CO)C[C@H](C)[C@H](CN(C)C)OCCCC[C@H](C)O3)cc1	3.2
O=C(C(=O)N1CCN(C(=O)c2ccco2)CC1)c1cc2ccccc2o1	-3.3

# 6 compounds drawn at random from the list so far, as already listed:
compound	MLL AF4-AF9 inh
CCOC(=O)[C@]12CCC=C1N(Cc1ccco1)C(=O)[C@H](CC(=O)NCCCOC)C2	-6.5
O=C(C(=O)N1CCN(C(=O)c2ccco2)CC1)c1cc2ccccc2o1	-3.3
N#Cc1ccc(OCC(=O)Nc2cc(S(=O)(=O)N3CCOCC3)ccc2N2CCCC2)cc1	2.2
C[C@@H]1CN([C@@H](C)CO)C(=O)c2cc(NS(C)(=O)=O)ccc2O[C@@H](C)CCCCO[C@@H]1CN(C)C(=O)Cc1ccccc1	-1.8
COc1ccc(NC(=O)Nc2ccc3c(c2)C(=O)N([C@@H](C)CO)C[C@H](C)[C@H](CN(C)C)OCCCC[C@H](C)O3)cc1	3.2
CC(C)NC(=O)Nc1cccc2c1O[C@H](CN(C)Cc1ccc(C(F)(F)F)cc1)[C@H](C)CN([C@@H](C)CO)C2=O	0.9
